Source: PubChem (National Center for Advancing Translational Sciences (NCATS))
Vaccinia Venus: qHTS for Stage-Specific Inhibitors of Vaccinia Orthopoxvirus: Venus Reporter Primary qHTS; AID 720580, 2013; 0.46% of 330,000 active; Potency, µM (series often up to 36.5 µM), without a hit: top-dose activity change, negative = inhibition, actives largely listed as inhibitors; Vaccinia virus Venus reporter expression, fluorescence; active means well fitted inhibition curve with a large enough effect; inconclusive means small, poorly fitted or top-dose-only effect; inactive means no such curve, though single readings can be large or run the other way; tested in A549 cells; also: nearly all actives have a fitted effect of over 30% in size; inactives centre near -10
Vaccinia mCherry: qHTS for Stage-Specific Inhibitors of Vaccinia Orthopoxvirus: mCherry Reporter Primary qHTS | Potency, µM (highest dose often 36.5 µM), without a hit: top-dose activity change, negative = inhibition, usual class: inhibitors | Vaccinia virus mCherry reporter infection, fluorescence; about a quarter of the inactives have no number | 0.63% of 310,000 active; active = well fitted inhibition curve with a large enough effect; inconclusive = small, poorly fitted or top-dose-only effect; inactive = no such curve, though single readings can be large or run the other way; tested in A549 cells; also: nearly all actives have a fitted effect of over 35% in size; inactives centre near -10
Active calls of the source: *; i = inactive; ? = inconclusive; / = not tested or not shown; & = joins results of further samples; [ ] = dose if it differs, or a comment. % is scaled to controls: 0 for no effect and ±100 for the full control effect; potency is read from the fitted curve at half-maximal effect.

SMILES | Vaccinia Venus | Vaccinia mCherry
CC(C)[N+]1(C)C2CCC1CC(OC(=O)C(CO)c1ccccc1)C2 (configuration not stated) | ? | -5%
Cc1cccc(C(=O)Nc2ccccc2C(=O)OCC(=O)Nc2ccc(C#N)cc2)c1 | -10% | 0%
O=C(Nc1ccc2c(c1)OCCO2)C1CCN(C(=O)c2ccc(Br)cc2)CC1 | -6% | -14%
O=C(O)c1cccc(S(=O)(=O)NNc2ccccc2C(F)(F)F)c1 | -5% | -11%
CCOc1ccc(-c2nc(C#N)c(N3CCN(Cc4ccccc4)CC3)o2)cc1 | -7% | ?
Cn1c(/C(C#N)=C(\O)c2ccccc2Cl)nc2ccccc21 | -6% | i
CCCC(=O)Oc1ccc(N(C(=O)CCC)S(=O)(=O)c2cccs2)cc1 | -2% | -2%
CCN(CC)S(=O)(=O)c1cc(OCC(N)=O)c(C)cc1Cl | -14% | -20%
Cc1ccccc1Oc1nc2ccccn2c(=O)c1/C=C(\C#N)c1nc2ccccc2[nH]1 | -1% | -7%
Cc1cccc(-c2c3c(=O)n(C)c(=O)n(C)c3cn2-c2cc(N)c(Cl)cc2Cl)c1 | -10%[7.34 µM] | -7%[7.34 µM]
Cc1sc(-c2cc3ccccc3oc2=O)nc1-c1ccc(Cl)c(Cl)c1 | -4% | -6%
Cc1cccc(OCCCn2c(=O)sc3ccccc32)c1 | -11% | -19%
COc1cc(-c2nc3ccc(Cl)cn3c2Nc2ccc3c(c2)OCCO3)ccc1O | 6% | -18%
CCOC(=O)c1[nH]c2ccccc2c1NC(=O)NC1CCCCC1 | -11% | -18%
Nc1c(Cl)cc(C2=NCCn3nc4cc(C(F)(F)F)ccc4c32)cc1Cl | ? | -21%
Cc1c(C(=O)NCc2ccccc2Cl)sc2ncnc(NCC3CCCO3)c12 (configuration not stated) | 13% | -7%
COc1cc(/C=C/C(=O)O)cc(S(=O)(=O)NC2CC2)c1OC | -11% | -16%
CCOc1ccc(S(=O)(=O)NCCC(=O)NCC(c2ccc(OC)cc2)N2CCOCC2)cc1 (configuration not stated) | -13% | i
O=C(O)c1cc(-c2ccc(/C=N/N3C(=O)C4C5C=CC(CC5)C4C3=O)o2)ccc1Cl (configuration not stated) | -7% | -6%
CC(C)CC(C(=O)O)N1C(=O)C2C3CC(C2C1=O)C1C(c2ccccc2)c2sc(=O)[nH]c2SC31 (configuration not stated) | -23% | -15%
Cc1cc(NC(=O)C(C)SCC(=O)NCc2ccc(F)cc2)no1 (configuration not stated) | -21% | -17%
O=S(=O)(NCCc1ccncc1)c1ccc(F)cc1 | 1% | -1%
COc1ccc(Oc2ccc(C(F)(F)F)cc2NC(=O)c2ccc(F)cc2)cc1 | -4% | -8%
COc1cc(/C=N/NC(=O)c2cccnc2)ccc1OS(=O)(=O)c1ccc(F)cc1 | -11% | i
COc1ccccc1N1CCN(C(=O)c2coc(=O)c(Br)c2)CC1 | -7% | i
COc1ccc(N2CCN(C(=O)CCc3c(C)nn(-c4ccc(N5CCCC5)nn4)c3C)CC2)cc1 | -14% | -9%
CCCCn1c(N)c(N(Cc2ccccc2OC)C(=O)CSCC(=O)Nc2cccc(C)c2)c(=O)[nH]c1=O | -5% | -18%
COC(=O)c1ccc2nc(-c3ccc(OC)c(OC)c3)c(Cc3ccccc3)n2c1 | -14% | -9%
CC(C)CCN1CC(C(=O)NCc2ccccc2)CC1=O (configuration not stated) | -6% | -17%
COc1ccc(OC(C)C(=O)NCCC2=CCCCC2)cc1 (configuration not stated) | -10% | -14%
CC12CCC(=O)C=C1CCC1C2CCC2(C)C(O)CCC12 (configuration not stated) | -7% | 13%
Cc1cccc(NC(=O)CN2C(=O)N/C(=C/c3cc(C)n(C(C)C)c3C)C2=O)c1 | -6% | -22%
O=C(NC1CCCCC1)C1CCCN(S(=O)(=O)c2cnc[nH]2)C1 (configuration not stated) | -8% | i
Nc1c(C(=O)Nc2cccc(C(=O)O)c2)sc2nc3c(cc12)CCCC3 | -5% | -17%
CCN1CCN(c2ccc(S(=O)(=O)N3CCOCC3)cc2NC(=O)/C=C/c2ccc(OC)cc2OC)CC1 | -21% | -11%
CCCCCNC(=O)C(c1cccc2ccccc12)n1c(=O)c(-c2ccccc2)nc2ccccc21 (configuration not stated) | -8% | -11%
CCc1ccc(NC(=O)C(C)OC(=O)c2c(C)nn(Cc3ccccc3)c2Cl)cc1 (configuration not stated) | -3% | i
COC(=O)C1=C(c2ccc(F)cc2OCc2ccccc2)C[C@@H]2CC[C@H]1N2C(=O)NCC1CC1 | -15% | -11%
O=C(NCC1CCCO1)C1CC(c2ccc(Cl)c(Cl)c2)=NO1 (configuration not stated) | -9% | -24%
O=C(NCCc1ccc2c(c1)OCCO2)c1ccccn1 | 0% | -15%
Cc1ccc(C(=O)N(CCC2=CCCCC2)c2c(N)n(Cc3ccccc3)c(=O)[nH]c2=O)o1 | -11% | i
CC12CN3CC(C)(CN(C1)C3c1ccc(Br)cc1)C2=O (configuration not stated) | -8% | -21%
O=C(CSc1ccccc1)N1CCCC(N2CCN(c3ccc(F)cc3)CC2)C1 (configuration not stated) | -28% | -25%
O=C(N/N=C/c1cccc2nccnc12)c1ccncc1 | -21% | -4%
CC1(N2CCCCC2)C(=O)c2ccccc2C1=O | 1% | -3%

Record cards (already shown).
O=C(N/N=C/c1cccc2nccnc12)c1ccncc1 is listed as Vaccinia Venus = -21%; Vaccinia mCherry = -4%
CC(C)[N+]1(C)C2CCC1CC(OC(=O)C(CO)c1ccccc1)C2 (configuration not stated) is listed as Vaccinia Venus = ?; Vaccinia mCherry = -5%

More records:
SMILES | Vaccinia Venus | Vaccinia mCherry
COc1ccc(NC(=O)C2Cc3c(-c4ccc(NC(C)=O)cc4)ccnc3O2)cc1OC (configuration not stated) | 3% | i
COc1ccc(Cl)cc1NC(=S)N1CCN(c2ccccn2)CC1 | ? | /
CN1C(=O)/C(=C\c2ccco2)N=C1c1ccc(Cl)cc1Cl | -12% | -24%
COc1ccc(CCNC(=O)CCn2c(=O)c3ccccc3n(Cc3ccc(Cl)cc3)c2=O)cc1OC | ? | ?
CCC1CCCCN1CCCNC(=O)c1cn(C)c2ccc(S(=O)(=O)N(C)C3CCCCC3)cc2c1=O (configuration not stated) | ? | -6%
CC(C)C1N=C2c3ccccc3N=C(SCC(=O)NCc3ccccc3Cl)N2C1=O (configuration not stated) | -10% | -11%
CC(=O)c1ccc(NC(=O)C(C)OC(=O)C2CCN(c3ccc(C(F)(F)F)cn3)CC2)cc1 (configuration not stated) | 0% | -2%
CC(CC(=O)NCc1ccc(Cl)cc1Cl)CC1=NS(=O)(=O)c2ccccc2N1 (configuration not stated) | -14% | -11%
COc1cc(/C=C2\SC(=O)N(c3ccc(O)cc3)C2=O)cc(OC)c1OC | -5% | -30%
CC1=C(c2ccc(C)c(C)c2)S(=O)(=O)N=C1N1CCC(C(=O)NCc2ccc(Cl)cc2)CC1 | -8% | -6%
Cn1cccc1C(=O)NC(=O)COC(=O)CNC(=O)CNC(=O)c1ccc(Cl)cc1Cl | 0% | -14%
O=C(NC1CCCCC1)c1ccccc1C(F)(F)F | -11% | -1%
CCOC(=O)c1c(C2CC2)csc1NC(=O)COC(=O)c1ccc[n+]([O-])c1 | -7% | -9%
CC(C)Cn1cnc2c(SCc3ccccc3Cl)nc(N)nc21 | -24% | -24%
Cc1ccc(CNC(=O)CSc2ncc(S(=O)(=O)c3ccc(C)c(Cl)c3)c(=O)[nH]2)cc1 | 6% | -2%
COc1ccccc1CNC(=O)Cn1c(=O)oc2cc(S(=O)(=O)N3CCCC3)ccc21 | -16%&-12% | -20%&-21%
CCOc1ccc(C(=O)COC(=O)Cc2n[nH]c(=O)c3ccccc23)cc1 | -23% | ?
COc1ccccc1CC(=O)NNC(=O)c1ccc(C(C)(C)C)cc1 | -22% | -12%
NCCCCC(N)c1cn([C@@H](CCC(=O)O)C(=O)N2CCNCC2)nn1 (some centres not stated) | 3% | i
Cc1nn(-c2ccccc2)c(C)c1C(=O)OC(C)C(=O)NC1CCCCC1 (configuration not stated) | -14% | i
NC(=S)c1cc2cc(Cl)ccc2oc1=O | -9% | -9%
CCc1nn(CC(=O)NCCCN2CCc3ccccc3C2)c(=O)c2cc3sccc3n12 | -14% | -26%
CCOC(=O)c1sc(NC(=O)c2ccc3ncsc3c2)nc1C | 0% | 6%
Cc1cccc(NCc2nnc(-c3ccccc3)o2)c1C | -13% | -16%
C[C@H]1CN([C@@H](C)CO)C(=O)Cc2cc(NS(=O)(=O)c3cccs3)ccc2O[C@H]1CN(C)S(=O)(=O)c1cn(C)cn1 | -16% | i
COCCNC(=O)C(c1ccc(Cl)cc1)N(CCOC)C(=O)CCC(=O)Nc1ccccn1 (configuration not stated) | -3% | i
COc1ccc(-c2cn3c(n2)sc2cc(C(=O)Nc4c(C)cccc4C)ccc23)cc1 | -13% | -10%
COc1ccc(OC)c(CNC(=O)CSc2c3c(nc4cc(Cl)ccc24)CCCC3)c1 | -10% | -5%
COc1ccc(Cl)cc1NC(=O)c1ccc2c(c1)CCCN2S(C)(=O)=O | -9% | -17%
COc1cccc(CN2C(=NC(=O)C3CCCO3)SC3CS(=O)(=O)CC32)c1 (configuration not stated) | -10% | -5%

In the list so far, these contain a thiophene ring, fused or not:
SMILES | Vaccinia Venus | Vaccinia mCherry
CCCC(=O)Oc1ccc(N(C(=O)CCC)S(=O)(=O)c2cccs2)cc1 | -2% | -2%
Cc1c(C(=O)NCc2ccccc2Cl)sc2ncnc(NCC3CCCO3)c12 (configuration not stated) | 13% | -7%
Nc1c(C(=O)Nc2cccc(C(=O)O)c2)sc2nc3c(cc12)CCCC3 | -5% | -17%
CCOC(=O)c1c(C2CC2)csc1NC(=O)COC(=O)c1ccc[n+]([O-])c1 | -7% | -9%
CCc1nn(CC(=O)NCCCN2CCc3ccccc3C2)c(=O)c2cc3sccc3n12 | -14% | -26%
C[C@H]1CN([C@@H](C)CO)C(=O)Cc2cc(NS(=O)(=O)c3cccs3)ccc2O[C@H]1CN(C)S(=O)(=O)c1cn(C)cn1 | -16% | i

Next compounds:
SMILES | Vaccinia Venus | Vaccinia mCherry
CC(c1ccccc1)C(OC(=O)c1cccc([N+](=O)[O-])c1C(=O)O)c1ccccc1 (configuration not stated) | 8% | -15%
COc1ccc(Cl)cc1NC(=O)CN(C)Cc1ccc(OC)c(OC)c1 | -16% | -5%
Cc1ccc(C(=O)Nc2cc(-c3nc4cc(Cl)ccc4o3)ccc2C)c(C)c1 | -5% | -11%
Cc1ccc(S(=O)(=O)Nc2ccc(Cl)cc2C(=O)c2ccc(F)cc2)cc1 | -6% | -10%
CCOC(=O)c1c(NC(=O)c2cc3ccccc3c(=O)o2)sc2c1CCC(C)C2 (configuration not stated) | 5% | 0%
CCOc1ccc(C2c3[nH]c4ccccc4c3CCN2C(=O)CCc2ccccc2)cc1 (configuration not stated) | 14% | i
O=C(Nc1cccc(Cl)c1)c1nc[nH]c1C(=O)N1CCN(c2ccccc2)CC1 | -14% | i
CN(C)S(=O)(=O)c1ccc(Cl)c(NC(=O)COC(=O)CC(NC(N)=O)c2ccc(Cl)cc2)c1 (configuration not stated) | -10% | -9%
O=C(CC(c1ccccc1)c1ccccc1)OCn1nnc2ccccc2c1=O | ? | /
CC1Cc2nc(SCC(=O)Nc3ccccc3F)n(C)c(=O)c2S1 (configuration not stated) | -19% | -2%
Cc1cccc(CCNC(=O)Cc2ccc(NC3=NC4CS(=O)(=O)CC4S3)cc2)c1 (configuration not stated) | -11% | i
COC(=O)CNC(=O)c1cccc(F)c1 | 20% | /
Cc1ccsc1/C=C(/C#N)C(=O)NCc1ccccc1 | -3% | -15%
COCC(=O)Oc1c(S(=O)(=O)c2ccc(C)cc2)c(C)nn1-c1ccccc1 | -26% | /
O=C(COC(=O)C1=COCCO1)Nc1ccc(OC(F)F)cc1 | -3% | -11%
CCCn1c(CCC(=O)Nc2cc(C(=O)OC)cc(C(=O)OC)c2)nc2cccnc21 | -5% | -15%
CC(=O)Nc1ccc(S(=O)(=O)N=S(C)C)cc1 | -14% | /
COc1ccc(-c2ccc(-c3noc(-c4ccco4)n3)c(OC)n2)cc1 | ? | -30%
Cc1c(CCC(=O)NCCc2ccccc2)c(=O)oc2cc(O)ccc12 | -6% | 0%
CNC(=S)N1C2CCC1CC(NC(=O)NC13CC4CC(CC(C4)C1)C3)C2 (configuration not stated) | -16% | -7%
COc1cc(OC)cc(C(=O)Nc2ccccc2C(=O)NCc2cccnc2)c1 | -11% | i
O=C(CSc1ncc(-c2ccccc2)[nH]1)Nc1cccc(C(F)(F)F)c1 | -13% | -19%
S=C(Nc1ccc2c(c1)OCCO2)Nc1ccc2c(c1)OCO2 | -25% | -14%
Cc1cc(C)c(S(=O)(=O)N2CCN(C(=O)N(C)C)CC2)c(C)c1 | -4% | i
O=C(C[n+]1ccccc1)N/N=C/c1ccco1 | 1% | 2%
O=C(COc1ccc(S(=O)(=O)N2CCCC2)cc1)NCCC1=CCCCC1 | -10% | -13%
CCC(C)OC(=O)/C(C#N)=C\c1ccc(-c2cccc(C(F)(F)F)c2)o1 (configuration not stated) | -5% | -9%

Compounds were not picked by outcome; any-hit rate near 0.86%.
